# Compound activity deposited in PubChem by several laboratories.
# BJeLR viability = kills HRASV12-expressing BJeLR cells. 300,000 compounds, 0.17% hits. BJeLR (HRASV12) viability, CellTiter-Glo ATP luminescence, 48 h; reference of the scale not given here. inhibition, % (concentration not given with the values);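 active = replicate mean above 50%; inconclusive = above 50% but judged a plate artefact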;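 note: 50 nL library stock added to about 25 µL; numbers are from one replicate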
# PrP 5UTR inh = inhibition of PrP 5' UTR reporter expression; cell-based PrP 5' UTR mRNA reporter, plate reader; inhibition, % (test concentration not listed); 340,000 compounds, 0.35% hits;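 active = every replicate at 50% or more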;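 note: 0 = median of the neutral control wells; tested in H4 reporter cells; numbers are from one replicate; inactives centre near -14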
# Autofluor counter = flagged as autofluorescent in microsphere protease counterscreen; fluorescence intensity (test concentration not listed); compound autofluorescence counterscreen, microsphere flow cytometry; hits give high values; AID 624483; 360,000 compounds, 3.1% hits;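 active = at least 3 SD above the mean of all compounds, about 16000 in these data; inconclusive = too few beads counted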;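 note: 100 nL of 1 mM stock went into each well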
# ugtP null kill = compounds lethal to S. aureus RN4220 ugtP deletion mutant. 330,000 compounds, 0.54% hits. growth inhibition, % (no concentration beside the values). OD600 growth, 16 h; some inactives read as strong as hits;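 active = z-score under -3 and OD600 up to 0.15 on both plates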;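 note: plate controls were untreated wells for no effect and antibiotic for full effect; wells of about 80 µL received 100 nL stock; the first replicate is given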
# RN4220 kill = S. aureus RN4220 growth inhibition; OD600, 16 h; 330,000 compounds, 0.33% hits; AID 1259311; inhibition, % (concentration not given with the values);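 active = z-score of -3 or lower and OD600 up to 0.18 on both plates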;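 note: plate controls were untreated cells for no effect and reference antibiotic for full effect; stock transfer was 100 nL into about 80 µL; one replicate is shown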
# Mtb hypoxia inh = reduces hypoxia-regulated biosensor signal in M. tuberculosis; M. tuberculosis hypoxia-regulated fluorescent reporter, fluorescence; fluorescence inhibition, % (no concentration beside the values); 300,000 compounds, 0.1% hits; AID 1159583;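 active = 35 to 45% if threefold the growth effect, above 45% if 1.5-fold the growth effect; inactive = the rest, general growth blockers included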;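 note: wells of about 50 µL received 100 nL stock; 0% = vehicle wells and 100% = reference inhibitor wells; whole bacteria with a GFP reporter of the hypoxia response; strong numbers were not always called active; many hits fall short of the cut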
# Mtb hypoxia inh growth = also measured in Mtb hypoxia inh; calls as there; growth inhibition, %; measured here: M. tuberculosis growth (absorbance);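 0% = vehicle and 100% = reference antibiotic; read after six days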
# The depositor's hits bear a star; u = inconclusive; x = no result given.
# Start of the listing, in advance (4 entries):
SMILES,BJeLR viability,PrP 5UTR inh,Autofluor counter,ugtP null kill,RN4220 kill,Mtb hypoxia inh,Mtb hypoxia inh growth
Cc1ccc(S(=O)(=O)N(CC(=O)NCc2ccccn2)c2ccc(Cl)cc2)cc1,2,-15,5291,9,-0.1,1,4
CCOc1ncccc1C(=O)Nc1cccc(S(=O)(=O)N2CCOCC2)c1,x,-11,3545,3,4.9,14,11
COc1ccc(S(=O)(=O)Nc2cccnc2)cc1,2,1,3611,2,5.0,11,12
CCOc1ccc(S(=O)(=O)NCc2cccnc2)c2ccccc12,1,1,4383,-1,6.4,0,0

# The whole of this part, repeating the preview:
SMILES,BJeLR viability,PrP 5UTR inh,Autofluor counter,ugtP null kill,RN4220 kill,Mtb hypoxia inh,Mtb hypoxia inh growth
Cc1ccc(S(=O)(=O)N(CC(=O)NCc2ccccn2)c2ccc(Cl)cc2)cc1,2,-15,5291,9,-0.1,1,4
CCOc1ncccc1C(=O)Nc1cccc(S(=O)(=O)N2CCOCC2)c1,x,-11,3545,3,4.9,14,11
COc1ccc(S(=O)(=O)Nc2cccnc2)cc1,2,1,3611,2,5.0,11,12
CCOc1ccc(S(=O)(=O)NCc2cccnc2)c2ccccc12,1,1,4383,-1,6.4,0,0
COc1ccc(S(=O)(=O)N2CCN(C(=O)c3ccccn3)CC2)cc1,x,-16,u,12,4.4,-13,4
CS(=O)(=O)c1ccc2nc(NC(=O)C3C4C=CC(C4)C3C(=O)O)sc2c1 (stereo unspecified),-4,-21,2483,0,-7.4,18,6
CC(C)(C)C(=O)N/C(N)=N/c1nc2ccccc2o1,7,-104,3086,-5,5.7,-4,-1
CC(NC(=O)c1ccccc1F)c1cccc2ccccc12 (stereo unspecified),-1,-1,3616,0,1.3,x,x
COc1ccc(OC)c(CCNC(=O)c2ccc3c(c2)N(Cc2ccccc2)CCS3)c1,9,-7,5732,4,-1.1,-1,-5
CCNc1nc(SC)nc(N(C#N)CC(=O)OC)n1,-6,-18,6673,0,3.2,11,11

# Reformatted with two lines to a compound: two of the compounds above
# Screens in order – BJeLR viability | PrP 5UTR inh | Autofluor counter | ugtP null kill | RN4220 kill | Mtb hypoxia inh | Mtb hypoxia inh growth
- CC(C)(C)C(=O)N/C(N)=N/c1nc2ccccc2o1
    7 | -104 | 3086 | -5 | 5.7 | -4 | -1
- COc1ccc(S(=O)(=O)N2CCN(C(=O)c3ccccn3)CC2)cc1
    x | -16 | u | 12 | 4.4 | -13 | 4

# Remaining list, next part.
SMILES,BJeLR viability,PrP 5UTR inh,Autofluor counter,ugtP null kill,RN4220 kill,Mtb hypoxia inh,Mtb hypoxia inh growth
Cc1ccccc1NC(=S)NCc1ccc(Cl)cc1,-1,-4,2285,-9,0.5,0,6
Cc1cccc(OCC(=O)N/N=C/c2cc([N+](=O)[O-])ccc2N2CCOCC2)c1,-7,-15,11221,x,x,x,x
O=C(NNS(=O)(=O)c1ccccc1)c1ccc(O)cc1,-5,-29,9676,-2,0.8,3,-4
COc1cc(C=NNC(=O)COc2ccccc2C)ccc1OC(=O)c1cccs1,x,x,x,2,4.5,10,8
COc1cccc(N2CCN(Cc3ccc(Cl)cc3)CC2)c1,x,-5,10809,1,-0.1,2,12
C=CCNC(=O)c1ccc(C)cc1Cl,-4,-24,10247,1,0.6,4,3
COC(=O)c1ccc(COC(=O)c2ccccn2)cc1,-3,-10,4702,8,1.9,x,x
O=C(O)/C(=C\c1cccc(OCc2ccccc2)c1)c1ccc(F)cc1,1,-11,5319,-13,17,5,0
O=C(CCSc1ccccc1Cl)Nc1cccc([N+](=O)[O-])c1,1,-46,2492,-15,-10.0,6,4
CCOc1cc(/C=N\NC(=O)CC(=O)NCCc2ccccc2)ccc1O,-7,-12,3677,x,x,x,x
CCC(=O)N1CCc2cc(S(=O)(=O)CCC(=O)Nc3ccc(C(C)=O)cc3)ccc21,-20,-11,4512,7,2.5,5,-4
O=C(OCc1c(-c2ccccc2)ncc2ccccc12)c1ccccc1C(F)(F)F,x,-10,2805,41,5.2,13,9
Fc1ccc(NC(=S)N2CCc3ccccc3C2)c(F)c1,0,-17,4159,11,3.7,11,9
N#Cc1ccc(-c2ccc(OCC(=O)Nc3cccnc3)cc2)cc1,15,-7,6307,-1,3.1,-5,-5
O=C(NCc1ccccc1)c1ccc(NC(=O)C2CCCO2)cc1 (stereo unspecified),2,-6,5971,3,3.9,0,2
O=C(O)CSc1ncccn1,8,-29,4688,4,3.3,12,6
COc1ccc(CNC(=O)C[C@H]2C[C@H](C(=O)N(C(C)C)C(C)C)[C@@]3(C)c4[nH]c5ccc(Cl)cc5c4CCN3C2=O)cc1OC,x,-13,4008,-10,1.5,-2,5
CCOc1ccc(OCCCCNCCN)cc1,1,x,x,3,4.6,8,8
CCOC(=O)c1cc(CC)sc1NC(=O)Cc1ccsc1,-10,-7,x,29,-3.9,x,x
COC(C/C=C/[C@H](O)[C@H](C)OCc1ccccc1)OC,-7,-23,3599,x,x,x,x

# Reformatted with values under each structure: part of the list above.
# Each structure is followed by: BJeLR viability | PrP 5UTR inh | Autofluor counter | ugtP null kill | RN4220 kill | Mtb hypoxia inh | Mtb hypoxia inh growth
- CCOc1ccc(OCCCCNCCN)cc1
    1 | x | x | 3 | 4.6 | 8 | 8
- CCOC(=O)c1cc(CC)sc1NC(=O)Cc1ccsc1
    -10 | -7 | x | 29 | -3.9 | x | x
- CCC(=O)N1CCc2cc(S(=O)(=O)CCC(=O)Nc3ccc(C(C)=O)cc3)ccc21
    -20 | -11 | 4512 | 7 | 2.5 | 5 | -4
- COC(C/C=C/[C@H](O)[C@H](C)OCc1ccccc1)OC
    -7 | -23 | 3599 | x | x | x | x
- Fc1ccc(NC(=S)N2CCc3ccccc3C2)c(F)c1
    0 | -17 | 4159 | 11 | 3.7 | 11 | 9
- O=C(OCc1c(-c2ccccc2)ncc2ccccc12)c1ccccc1C(F)(F)F
    x | -10 | 2805 | 41 | 5.2 | 13 | 9

# Later entries:
SMILES,BJeLR viability,PrP 5UTR inh,Autofluor counter,ugtP null kill,RN4220 kill,Mtb hypoxia inh,Mtb hypoxia inh growth
CC(C)[C@H](NC(=O)N1CC(=O)Nc2ccccc21)C(=O)N1CCC[C@@H]1C(=O)O,-5,-9,4342,8,1.0,x,x
CC(C)(C)OC(=O)C(Cc1ccc(OC(C)(C)C)cc1)NC(=O)CNC(=O)OCc1ccccc1 (stereo unspecified),8,-7,10199,6,8.1,-4,-9
CC(C(=O)NC1C=CS(=O)(=O)C1)N1C(=O)/C(=C\c2ccccc2)SC1=S (stereo unspecified),2,-31,5037,-5,-3.2,2,-13
CCOC(=O)CCNC(=O)N1CCCC(CNS(=O)(=O)c2cccs2)C1 (stereo unspecified),4,-28,3480,-4,0.7,-9,0
COc1cc(/C=C(\NC(=O)c2ccccc2)C(=O)Nc2nccs2)ccc1OC(C)=O,12,x,3623,48,76,-8,-6
COc1ccc(CN(Cc2cc3ccc(C)cc3[nH]c2=O)Cc2nnnn2C2CCCC2)cc1,5,-12,7524,-19,2.7,-4,5
O=C(Nc1ccccc1-c1nnn(CC(=O)N2CCCc3ccccc32)n1)c1ccc(Cl)cc1,-3,-3,4487,-7,-0.6,3,8
Cc1c(Cl)cccc1NS(=O)(=O)c1c(C(=O)N2CCOCC2)c(C)n(C)c1C,6,-3,4229,12,9.4,8,-3
O=C(CNc1n[nH]c(=O)[nH]c1=O)NN=Cc1cccnc1,x,x,x,7,2.3,4,5
COc1ccc(N2C(=O)C(CC(=O)O)S/C2=C\C(C)=O)cc1 (stereo unspecified),17,-14,4430,4,-0.2,x,x
COc1cccc(N(CC(=O)N2CCOCC2)S(C)(=O)=O)c1,-5,-23,4187,6,1.5,-4,0
COc1ccc(Cc2nnc(SCC(=O)Nc3nc(C)cs3)o2)cc1,0,-29,10876,4,3.7,12,13
CC(C)CCNC(=O)c1onc(CSc2ccc(Cl)cc2)c1C(=O)NCCC(C)C,6,-15,3037,-30,-2.0,5,10
O=C(COC(=O)CNC(=O)c1ccco1)NCc1ccc(F)cc1,-7,2,4694,1,1.0,-3,-5
COC(=O)C1CCN(C(=O)COC(=O)CCc2nc3ccccc3c(=O)[nH]2)CC1,10,-32,2144,16,6.3,-6,-4
O=c1[nH][nH]c2nc(C(F)(F)F)cc(C(F)(F)F)c12,4,-19,22696*,4,1.8,9,16
COc1cc(C)ccc1OCCOCCOc1ccccc1[N+](=O)[O-],-1,-27,2410,2,8.8,3,3
CSc1ccc(CNC(=O)Cn2nc(C)c3c(C)n(-c4ccc(C)cc4)nc3c2=O)cc1,-2,1,4368,13,8.7,-2,1
COc1ccc(C2(C)NC(=O)N(CC(=O)N(c3ccccc3)C3CCS(=O)(=O)C3)C2=O)cc1 (stereo unspecified),x,-23,3683,8,3.2,14,9
CCOC(Cn1cc([N+](=O)[O-])c(=O)[nH]c1=O)OCC,x,-9,3125,5,2.6,13,5
CC(=NNC(=O)c1ccn(C)n1)c1ccc(NC(=O)C2CCCC2)cc1,x,x,x,2,3.4,3,8
CCCCn1nc(C(=O)OCC(=O)Nc2sccc2C(N)=O)c2ccccc2c1=O,-6,-8,4213,5,-0.6,14,2
Cc1cc(-n2c(C)cc(C(=O)CSc3nnnn3-c3ccccc3)c2C)no1,-1,-22,10547,-1,15,0,5
Cc1noc(C)c1C(=O)N1CCc2ccccc2C1,-8,-22,8423,7,2.7,-3,0
O=C(CCS(=O)(=O)Cc1ccccc1F)N1CCc2ccccc2C1,-4,1,x,2,13,-4,15
Nc1ccc2oc(-c3ccccn3)nc2c1,-4,-75,2380,-4,-0.1,x,x
Cc1ccc(NC(=O)CNc2cc(S(=O)(=O)N3CCOCC3)ccc2N2CCOCC2)cc1S(=O)(=O)N(C)C,x,-49,3427,-1,1.7,10,8
CCC(C)(C)NC(=O)C(c1ccc(C)cc1)N(CC1CCCO1)C(=O)CNC(=O)c1cccs1 (stereo unspecified),-1,-18,12778,-6,4.4,7,4
NNC(=O)c1cc2cc3ccccc3nc2s1,-1,-46,3499,18,14,2,9
CC(C)[C@@H](C(=O)NC1CCCC1)N1C(=O)N2CCc3c([nH]c4ccccc34)[C@@]2(C)C1=O,-7,-2,5225,-17,0.1,x,x
COc1ccccc1NC(=O)c1ccc2c(c1)OCO2,4,-18,3820,4,10.0,14,16
COc1ccc(C(=O)NCc2csc(C(C)C)n2)cc1OC1CCN(C(C)=O)CC1,4,-16,5038,9,3.0,12,9
COc1ccc(CCNC(=O)CSc2nnc(-c3cccc(C)c3)o2)cc1OC,8,-25,8797,-7,4.9,15,5
CCOC(=O)c1c(C)[nH]c(C)c1C(=O)CSc1nc2ccccc2c(=O)n1-c1ccc(F)cc1,-1,-9,5530,-12,-6.6,12,7
N#C/C(=C\c1cccnc1)c1ccc(Br)cc1,2,-34,3580,2,2.8,9,-9
Cc1cccc(CN2CCNC2=O)c1,x,x,13191,1,3.6,0,10
COc1ccc(S(=O)(=O)N2CCCCCC2)cc1NC(=O)CCc1cc(OC)c(OC)c(OC)c1,x,-16,5649,6,2.6,3,2
COc1ccc(N2CCN(C(c3ccccc3)c3nnnn3Cc3ccc(F)cc3)CC2)cc1 (stereo unspecified),2,-15,2600,2,1.1,x,x
Cc1c(N)cccc1-n1cnnn1,8,-9,4293,-2,1.5,4,15
COc1ccc(CC(=O)OCC(=O)NCc2ccc(Cl)cc2)cc1,-6,-5,1913,11,2.7,12,-1
CCOC(=O)c1c(CN2CCCCC2)n(C)c2cc(Br)c(O)cc12,-3,-11,5925,1,2.3,2,11
Cc1c(C(=O)NC(=S)Nc2ccc(N3CCOCC3)cc2)cccc1[N+](=O)[O-],2,-17,2685,13,8.0,3,2
O=C(c1cc2cc([N+](=O)[O-])ccc2oc1=O)N1CCN(C2CCCCC2)CC1,1,-20,4233,3,5.1,x,x
COc1ccc(C(CNC(=O)c2cccc(NC(=O)c3cccs3)c2)N2CCCC2)cc1 (stereo unspecified),x,-8,11711,7,-4.5,-2,-3
O=C(CSc1nnc(-c2ccc(O)cc2)o1)NNC(=O)c1ccncc1,-2,1,5101,3,-0.6,8,-1
CCOC(=O)C1CCCN(C(=O)C(C)Oc2ccc(Cl)cc2Cl)C1 (stereo unspecified),x,-1,22441*,0,7.6,11,-3
COC(=O)c1ccc(NC(=O)CCS(=O)(=O)c2ccc(C)cc2)cc1,-11,-10,3597,5,0.9,5,2

# This is a random part of the collection, and some 4% of all compounds hit somewhere here.
